YopH inh – blocks Yersinia enterocolitica YopH tyrosine phosphatase; fluorescence Ex485/Em525; inhibition, %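 (about 10 µM by stock and volumes)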; actives 0.16% (n = 140,000);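 active means inhibition of 50% or more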;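 further: controls were vehicle for no effect and minimum signal wells for full effect; inactives centre near -20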
Mtb bLac sens – beta-lactam sensitization of Mtb H37Rv | M. tuberculosis H37Rv growth with meropenem, percent inhibition; hits of this screen are not shown here | inhibition, % at 25 µM | actives 0.27% (n = 330,000);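 active means about 74% or more and at least 40 points above the plate without the antibiotic, then above 30% in a dose series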;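 further: growth measured after seven days incubation then overnight dye step; 0% = bacteria only wells and 100% = bacteria with antibiotic; twin plates without the antibiotic show which effects depend on it; some results filed as inactive read as strong as hits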
RecA intein inh – blocks M. tuberculosis RecA intein splicing | cell-free RecA intein splicing, fluorescence | inhibition, %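 (about 9 µM by stock and volumes)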 | actives 0.75% (n = 290,000) | AID 2221; in the data active means inhibition above about 30%;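 further: 0% = vehicle wells and 100% = reference inhibitor control wells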
Target sequence (P9WHJ3 whole entry, looked up): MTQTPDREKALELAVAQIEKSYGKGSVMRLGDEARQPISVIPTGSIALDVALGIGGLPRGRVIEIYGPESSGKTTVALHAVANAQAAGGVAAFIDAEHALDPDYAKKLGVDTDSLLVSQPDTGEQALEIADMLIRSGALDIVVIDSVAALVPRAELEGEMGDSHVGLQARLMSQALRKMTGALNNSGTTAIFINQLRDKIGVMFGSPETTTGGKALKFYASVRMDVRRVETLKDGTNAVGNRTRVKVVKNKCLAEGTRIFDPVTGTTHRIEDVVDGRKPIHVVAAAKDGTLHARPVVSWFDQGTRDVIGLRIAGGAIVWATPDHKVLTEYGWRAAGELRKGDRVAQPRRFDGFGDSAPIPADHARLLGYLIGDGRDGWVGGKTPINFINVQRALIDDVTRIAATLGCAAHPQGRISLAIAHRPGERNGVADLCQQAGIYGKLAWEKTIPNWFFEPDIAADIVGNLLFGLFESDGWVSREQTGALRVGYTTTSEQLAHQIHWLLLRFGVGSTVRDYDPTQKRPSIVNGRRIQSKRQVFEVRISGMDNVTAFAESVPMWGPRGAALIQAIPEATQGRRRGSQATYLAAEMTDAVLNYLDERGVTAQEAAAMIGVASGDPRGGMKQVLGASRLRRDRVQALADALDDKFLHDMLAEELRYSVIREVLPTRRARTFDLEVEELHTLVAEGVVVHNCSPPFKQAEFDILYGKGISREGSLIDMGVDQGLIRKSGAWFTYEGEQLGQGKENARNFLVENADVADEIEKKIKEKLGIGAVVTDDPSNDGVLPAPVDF
Arbovirus anti – antivirals against arbovirus infection; actives 0.37% (n = 200,000); arbovirus infection cell-based antiviral screen; AID 1251; inhibition, % at 10 µM;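 active means inhibition from about 30%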;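 further: bluetongue infection of BSR cells; cell survival read as ATP light after 72 h; 0% = infected wells without compound and 100% = uninfected wells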
Mtb growth – M. tuberculosis H37Rv growth inhibitors, H37Rv strain (AID 1626) | inhibition, % at 10 µM; hits with a dose series show IC50 in µM | M. tuberculosis H37Rv growth inhibition; higher % means a stronger effect | actives 0.95% (n = 220,000);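 active means confirmed in a dose series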;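 further: bacteria incubated seven days before Alamar blue readout; 0% = bacteria only wells and 100% = bacteria with antibiotic wells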
Arbovirus anti repeat – further read-out of Arbovirus anti, marked with its call; inhibition, %; measured here: 10K subset replicate screen; many hits read low in the repeat;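 first of two repeat runs on a subset; 0% = infected and 100% = uninfected wells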
Active calls of the source: *; . = no result given. An excerpt (hit frequency here may not be typical).

SMILES	YopH inh	Mtb bLac sens	RecA intein inh	Arbovirus anti	Mtb growth	others
COC(=O)c1ccc(Cl)c(NC(C)=O)c1	-8.8	-7.4	1.8	5.0	0.4%
c1ccc(-c2ccc(SCc3cccnc3)nn2)nc1	.	8.0	-1.5	-30.7	-9.8%
O=C(CN(Cc1cccs1)C(=O)CNC(=O)c1ccco1)NC1CCCCC1	-12.5	-10.7	1.7	2.9	-4.5%
CCN(CC(=O)N1CCCC1)S(=O)(=O)c1ccccc1	.	3.0	-1.6	.	.
Cc1ccc(S(=O)(=O)NC(CC(=O)O)c2ccccc2)cc1 (stereo not drawn)	4.5	-18.9	0.7	0.8	49.1%
O=C(O)CC1=C(Nc2ccccc2)C(=O)N(c2ccccc2)C1c1ccc(F)cc1 (stereo not drawn)	-23.4	8.0	2.6	0.9	-3.0%
CCC(=O)Nc1ccc(/C(C)=N\NS(=O)(=O)c2ccc(C)cc2)cc1	-37.5	1.3	-3.2	11.3	6.8%
CC1CCCN(CCCN2C(=O)C3C(C(=O)Nc4cccc(Cl)c4)C4C=CC3(O4)C2C(=O)NC2CCCCC2)C1 (stereo not drawn)	.	2.2	3.5	.	.
Cc1ccc(N2C(=O)CCC2(C(N)=O)c2ccccc2)cc1 (stereo not drawn)	.	-5.0	7.3	2.9	0.5%
COc1cc(OC)cc(C(=O)NCC(C)NC(=O)c2cc(OC)cc(OC)c2)c1 (stereo not drawn)	.	-5.8	2.6	.	.
COc1ccc(OC)c2sc(N(CCN(C)C)C(=O)c3cc(Cl)sc3Cl)nc12	.	-6.1	1.1	-3.4	7.2%
Cc1ccc(Cn2nnc3c(=O)[nH]c(C4CCCN(C(=O)Nc5ccc(F)cc5)C4)nc32)cc1 (stereo not drawn)	-33.1	-0.4	-2.2	-16.4	-5.0%
Cc1ccc(NC(=O)C(=O)NCCCN2CCCC2=O)c(C)c1	.	2.0	0.0	.	.
Cc1cccc(N=C2SC(C)CN2C(=O)CN2C(=O)NC3(CCCC3)C2=O)c1 (stereo not drawn)	.	-0.1	0.8	.	.
Cc1c(C)c2c(OCC(=O)N[C@@H](C(=O)O)c3ccccc3)cc3c(c2oc1=O)CCC(C)(C)O3	.	1.9	-0.5	.	.
CCN1C(=O)c2ccccc2S(=O)c2ccc(C(=O)N3CCOCC3)cc21 (stereo not drawn)	.	-11.7	-0.5	.	1.6%
Cn1c(CSc2nc3ccccc3s2)nc2ccccc21	-50.0	-1.1	4.8	4.5	-8.4%
COc1cc(OC)c2c(-c3ccccc3)cc(=O)oc2c1C(CCN1CCCC(C)C1)c1ccc(N(C)C)cc1 (stereo not drawn)	.	100.3	20.1	.	4.18µM*
Nc1nc(N2C(=O)C3CC=CCC3C2=O)nn1-c1ccccc1 (stereo not drawn)	-36.7	5.0	-4.3	12.0	9.8%
CCCCN(CCCC)S(=O)(=O)c1ccc2oc(C(=O)N3CCOCC3)c(C)c2c1	-29.3	38.2	4.5	-14.8	8.2%
O=C(NCC(c1cccs1)N1CCOCC1)c1cc2ccccc2o1 (stereo not drawn)	-31.7	-21.6	2.9	4.2	4.5%	Arbovirus anti repeat=-3.6
COc1cccc(C(C(=O)NC(C)(C)C)N(CC(C)C)C(=O)CCC(=O)Nc2cc(C)on2)c1OC (stereo not drawn)	.	4.5	2.5	-3.3	-4.5%
Cc1ccc2c(CN3CCOCC3)cc(=O)oc2c1C	.	3.2	-0.8	.	.
COc1ccc(C(=O)CSc2n[nH]c(-c3ccncc3)n2)cc1[N+](=O)[O-]	-27.3	-0.9	0.3	-2.6	-6.4%

Overlap with the part before: 7 entries, followed by the next part.
SMILES	YopH inh	Mtb bLac sens	RecA intein inh	Arbovirus anti	Mtb growth	others
COc1cc(OC)c2c(-c3ccccc3)cc(=O)oc2c1C(CCN1CCCC(C)C1)c1ccc(N(C)C)cc1 (stereo not drawn)	.	100.3	20.1	.	4.18µM*
Nc1nc(N2C(=O)C3CC=CCC3C2=O)nn1-c1ccccc1 (stereo not drawn)	-36.7	5.0	-4.3	12.0	9.8%
CCCCN(CCCC)S(=O)(=O)c1ccc2oc(C(=O)N3CCOCC3)c(C)c2c1	-29.3	38.2	4.5	-14.8	8.2%
O=C(NCC(c1cccs1)N1CCOCC1)c1cc2ccccc2o1 (stereo not drawn)	-31.7	-21.6	2.9	4.2	4.5%	Arbovirus anti repeat=-3.6
COc1cccc(C(C(=O)NC(C)(C)C)N(CC(C)C)C(=O)CCC(=O)Nc2cc(C)on2)c1OC (stereo not drawn)	.	4.5	2.5	-3.3	-4.5%
Cc1ccc2c(CN3CCOCC3)cc(=O)oc2c1C	.	3.2	-0.8	.	.
COc1ccc(C(=O)CSc2n[nH]c(-c3ccncc3)n2)cc1[N+](=O)[O-]	-27.3	-0.9	0.3	-2.6	-6.4%
CCn1c(NCc2ccccn2)nc2c1c(=O)n(C)c(=O)n2C	3.2	3.9	0.8	9.0	4.4%
O=C(NC1CCCCC1)N(Cc1ccccc1)Cc1ccco1	4.5	-0.7	1.2	-2.2	11.5%
CC(C)[C@H](NC(=O)C1CCN(C(=O)[C@@H]2CCCN2)CC1)C(=O)NCc1ccc(F)cc1	.	-6.8	-1.6	.	.
COc1ccc(Br)cc1CNC(=O)Cn1nc(C)n2cccc2c1=O	.	-7.5	-3.2	.	.
CCNc1nnc(CCn2nc(C)c(Br)c2C)s1	.	-7.8	2.6	2.3	-1.2%
O=C(Nc1ccc2c(c1)OCCO2)c1cccc2nc3ccccc3nc12	-33.0	96.8	4.8	-29.3	<0.195µM*
CCOC(=O)c1cc2c(ccn2-c2ccc(F)cc2)n1CC(=O)N(CC)CC	.	6.9	4.7	-14.0	-7.7%
CCN(C(=O)COC(=O)c1nc2nc(C)cc(C)n2n1)C1CCCCC1	.	0.3	-0.5	.	.
O=C(CSc1nnc(CNC(=O)c2c(F)cccc2F)o1)NCc1ccccc1	.	-9.2	3.0	.	.
CCC(C)(C)n1nnnc1C(c1ccc(OC)c(OC)c1)N1CCN(c2cccc(OC)c2)CC1 (stereo not drawn)	2.5	23.6	-1.8	11.6	-3.5%
Cc1ccc(-n2nc(-c3ccco3)cc2C(=O)NCc2cccnc2)cc1	-43.7	13.0	10.5	0.7	.
Clc1ccc(CNc2ccccn2)cc1	.	-2.2	-1.0	-7.0	-2.1%
COc1ccc(NC(=O)CSc2nnc(Cc3cccn3C)n2CCc2ccccc2)c(OC)c1	-0.2	1.9	-7.0	2.6	6.3%
Cc1nn(-c2ccccc2)c(C)c1C(=O)OCC(=O)N1CCN(S(=O)(=O)c2ccccc2)CC1	-55.4	-11.0	1.0	2.8	0.7%
COC(=O)CSc1ccc(C#N)c(SCC(=O)OC)c1	-3.9	99.7	0.5	-0.1	3.27µM*
CCOC(=O)c1ccccc1NC(=O)Cn1c(=O)n(Cc2ccccc2)c(=O)c2c(C)c(C)sc21	-10.2	6.0	4.2	-2.2	-3.1%
CCCC(=O)Nc1nnc(Cc2ccccc2)s1	-45.7	2.3	.	-1.3	-9.3%
O=C(c1ccccc1)c1n[nH]c(-c2ccccc2)cc1=O	.	1.0	.	9.0	-7.5%
O=C(NCc1ccco1)C1CCN(C(=O)c2ccc([N+](=O)[O-])cc2)CC1	.	5.2	-0.4	.	.
CCN(CC)CCN1C(=O)C(O)=C(C(=O)c2cc3cccc(OC)c3o2)C1c1ccc(F)cc1 (stereo not drawn)	.	-12.1	0.6	.	1.5%
Cc1ccccc1-n1nc2c(c1NC(=O)c1c(-c3ccccc3Cl)noc1C)CSC2	6.3	5.9	.	-10.5	-6.6%
Cc1cc(-c2nn(C)c(=O)c3ccccc23)ccc1CNC(=O)NC1CCCCC1	.	-0.5	-0.3	-17.6	-2.1%
Cc1ccc(Cn2nnc3c(=O)n(Cc4ccccc4C)cnc32)cc1	-21.4	-1.1	0.5	5.7	-2.9%	Arbovirus anti repeat=2.0
Cc1nc(SCC(=O)NCc2ccccc2)c2oc3ccccc3c2n1	-28.0	-12.0	3.2	-8.3	-1.1%

3 entries drawn at random from those above:
SMILES	YopH inh	Mtb bLac sens	RecA intein inh	Arbovirus anti	Mtb growth	others
Cc1nn(-c2ccccc2)c(C)c1C(=O)OCC(=O)N1CCN(S(=O)(=O)c2ccccc2)CC1	-55.4	-11.0	1.0	2.8	0.7%
Cc1ccc(Cn2nnc3c(=O)n(Cc4ccccc4C)cnc32)cc1	-21.4	-1.1	0.5	5.7	-2.9%	Arbovirus anti repeat=2.0
Cc1cc(-c2nn(C)c(=O)c3ccccc23)ccc1CNC(=O)NC1CCCCC1	.	-0.5	-0.3	-17.6	-2.1%

Returning to the listing with the two entries that preceded the break.
SMILES	YopH inh	Mtb bLac sens	RecA intein inh	Arbovirus anti	Mtb growth	others
Cc1ccc(Cn2nnc3c(=O)n(Cc4ccccc4C)cnc32)cc1	-21.4	-1.1	0.5	5.7	-2.9%	Arbovirus anti repeat=2.0
Cc1nc(SCC(=O)NCc2ccccc2)c2oc3ccccc3c2n1	-28.0	-12.0	3.2	-8.3	-1.1%
CC1=NOC2(C1)N(C)c1ccccc1C2(C)C (stereo not drawn)	-20.9	-10.2	2.5	3.1	-0.3%
CCC1CCCCN1CCCNC(=O)c1ccc(N2CCCC2=O)cc1 (stereo not drawn)	.	-1.5	2.0	.	.
COc1nc(N)nc(NC(=O)c2cccs2)c1N=O	.	68.0	0.7	.	.
O=C(NCc1ccccn1)c1ccc(Cn2cc(Br)cn2)o1	-13.7	4.5	-5.0	2.8	2.3%
COc1ccc(OCc2cc(C(=O)N(C)Cc3nnc(C)o3)no2)c(Cl)c1	.	2.9	2.3	.	.
C=CCOc1cccc(C(=O)NC(c2ccccc2)C(C)C)c1 (stereo not drawn)	.	-9.7	3.8	4.6	7.8%
COc1ccc(-c2oc3ccc(-c4ccc5c(c4)OCO5)cc3c2-c2ccc(OC)nc2)cc1	.	21.6	-0.4	.	4.4%
Cc1ccc(S(=O)(=O)NCCC(c2ccccc2)c2ccco2)cc1 (stereo not drawn)	-10.6	12.2	7.2	-10.9	5.6%
CCCNC(=S)N1CC2(C)CN(C(=O)C(=O)OCC)CC(C)(C1)C2=O	.	-10.8	-0.4	11.4	-4.9%
CCn1nnc2cc(C(=O)NCCc3ccccc3F)ccc21	.	-5.4	1.1	.	.
CN(C)c1ccc(/C=C2\CCCc3c2nc2ccccc2c3C(=O)O)cc1	.	5.6	-12.0	.	.
CCCCC(=O)N(CCC)CCC	.	2.7	0.6	.	-8.5%
COc1ccc(N2CC(C(=O)N[C@@H](C)C(=O)NC(C)c3ccccc3)CC2=O)cc1 (stereo partly drawn)	.	-3.4	-3.5	.	.
O=C(Nc1ccccc1OC(F)F)C1CC(=O)N(Cc2ccccc2)C1 (stereo not drawn)	.	-8.0	-1.3	.	.
CCOC(=O)c1[nH]c(CSc2nnc(-c3ccncc3)n2CCOC)c(C(=O)OCC)c1C	-24.6	-8.3	1.8	17.9	2.9%
CCS(=O)c1scc(-c2ccc(Cl)cc2)c1C#N (stereo not drawn)	.	0.4	-3.1	.	1.4%
N/C(Cn1cncn1)=N\NC(=O)C(=O)Nc1ccccc1	.	-9.3	-1.0	1.5	37.7%
CN1C(=O)C2C=CC1C1C(=O)N(c3ccccc3)C(=O)C21 (stereo not drawn)	-14.8	-7.6	1.6	-0.2	2.3%
O=C1C2C3C=CC(C2C(=O)N1c1ccccc1O)C1C2C(=O)N(c4ccccc4O)C(=O)C2C31 (stereo not drawn)	.	-2.0	-2.3	-1.9	-6.4%
O=C(NCc1ccccc1F)C1CCCN(S(=O)(=O)c2ccc(-n3cnnn3)cc2)C1 (stereo not drawn)	.	4.0	-3.5	.	.
Cc1ccc(OCC(=O)Nc2ccc(Cl)cc2C(=O)c2ccccc2)cc1	-32.5	-5.2	0.5	1.8	-2.1%
COc1ccc2c(c1)C(=O)/C(=C/C=C/c1ccccc1)CC2	-12.0	46.1	7.5	-13.5	5.0%
COc1ccc(C(CNC(=O)c2ccc(S(=O)(=O)N(C)C)cc2)N2CCCC2)cc1 (stereo not drawn)	.	-2.5	-0.2	-2.5	8.4%
COCCn1c(SCC(=O)Nc2cccc(F)c2)nc2c([nH]c3ccccc32)c1=O	.	-12.1	-0.7	.	.
COC(=O)C(N)Cc1ccc(O)cc1 (stereo not drawn)	3.6	4.0	-4.3	9.6	-8.6%

Taken from the listing for reference:
SMILES	YopH inh	Mtb bLac sens	RecA intein inh	Arbovirus anti	Mtb growth	others
COCCn1c(SCC(=O)Nc2cccc(F)c2)nc2c([nH]c3ccccc32)c1=O	.	-12.1	-0.7	.	.
COC(=O)C(N)Cc1ccc(O)cc1 (stereo not drawn)	3.6	4.0	-4.3	9.6	-8.6%

From PubChem BioAssay
